# PABP polyA inh: PABP poly(A) RNA binding inhibitors, primary screen, biochemical, fluorescence polarization, uHTS | inhibition, % at 35 µM | 290,000 tested, 1% active | Polyadenylate-binding protein 1 (Homo sapiens), P11940;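 active = 50% or more with normal probe brightness, or confirmed in later tests; inconclusive = above 50% with abnormal brightness, or retests that disagree; inactive = below 50% or failed in later tests; about a fifth of its hits are not listed in these tables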;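 also: calls also rest on retests at 20 µM and on dose response follow-up; controls were probe without protein and protein plus probe with vehicle; some compounds called inactive have numbers as strong as hits; many hits fall short of the cut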
# Target sequence (P11940 whole entry, looked up): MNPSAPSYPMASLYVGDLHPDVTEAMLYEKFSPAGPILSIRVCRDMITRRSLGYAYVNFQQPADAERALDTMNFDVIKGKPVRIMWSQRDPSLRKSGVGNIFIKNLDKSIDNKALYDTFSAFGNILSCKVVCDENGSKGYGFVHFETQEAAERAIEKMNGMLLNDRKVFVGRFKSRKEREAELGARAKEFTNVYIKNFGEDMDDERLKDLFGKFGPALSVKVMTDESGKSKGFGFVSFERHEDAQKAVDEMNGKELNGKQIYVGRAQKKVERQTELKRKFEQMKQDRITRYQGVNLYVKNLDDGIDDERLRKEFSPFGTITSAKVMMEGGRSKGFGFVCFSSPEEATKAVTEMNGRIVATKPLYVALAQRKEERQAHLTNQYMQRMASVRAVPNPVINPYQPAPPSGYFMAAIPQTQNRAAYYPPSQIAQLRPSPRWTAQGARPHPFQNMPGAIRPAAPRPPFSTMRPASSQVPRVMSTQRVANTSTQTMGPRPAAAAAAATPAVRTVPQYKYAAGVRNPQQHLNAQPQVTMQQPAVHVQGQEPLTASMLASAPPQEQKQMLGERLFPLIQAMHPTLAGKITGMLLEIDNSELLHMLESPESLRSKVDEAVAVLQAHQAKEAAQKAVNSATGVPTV
# eIF4H inh: human eIF4H binding inhibitors, primary screen, translation initiation inhibitor project, biochemical, uHTS, fluorescence polarization | 290,000 tested, 0.94% active | eIF4H fluorescence polarization binding assay | Eukaryotic translation initiation factor 4H (Homo sapiens), Q15056 | inhibition, % at 35 µM | AID 2012, 2009;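 active = 50% or more with normal probe brightness, or confirmed in later tests; inconclusive = above 50% with abnormal brightness, or retests that disagree; inactive = below 50% or failed in later tests; about a fifth of its hits are not listed in these tables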;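 also: calls also rest on retests at 20 µM and on dose response follow-up; 0% = protein and probe with vehicle and 100% = probe without protein; strong numbers were not always called active; many hits fall short of the cut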
# Rce1 inhib: yeast Rce1p protease inhibitors, primary screen, biochemical, fluorescence, cell-free homogeneous; 290,000 tested, 0.27% active; yeast membranes, quenched prenylated peptide cleavage fluorescence; CAAX prenyl protease 2 (Saccharomyces cerevisiae (strain ATCC 204508 / S288c)), Q03530; AID 2563, 2010; calls only;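 active = fall in fluorescence gain of 50% or more versus controls, with final raw signal at or below 3038400; inconclusive = same 50% fall but final raw signal above 3038400; inactive = fall in fluorescence gain under 50%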;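 also: plate controls were neutral control wells for no effect and wells lacking membranes for full effect; tested at 10 µM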
# Target sequence (Q03530 whole entry, looked up): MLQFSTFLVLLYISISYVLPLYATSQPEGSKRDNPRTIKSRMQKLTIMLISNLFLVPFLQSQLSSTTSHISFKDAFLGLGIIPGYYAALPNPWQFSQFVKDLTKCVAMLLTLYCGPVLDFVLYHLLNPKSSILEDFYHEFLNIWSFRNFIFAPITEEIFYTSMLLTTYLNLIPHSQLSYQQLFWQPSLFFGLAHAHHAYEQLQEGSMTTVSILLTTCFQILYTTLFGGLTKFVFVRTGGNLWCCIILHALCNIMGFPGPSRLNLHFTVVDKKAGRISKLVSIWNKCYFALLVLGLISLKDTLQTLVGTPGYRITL
# MT1-MMP act inh: blockers of MT1-MMP proenzyme processing, primary screen, HT1080 RFP-PRO-GFP cells, GFP/RFP fluorescence; AID 651647, 2012; Matrix metalloproteinase-14 (Homo sapiens), P50281; 360,000 tested, 0.061% active; GFP/RFP ratio change, % at 20 µM; GFP/RFP ratio fluorescence, overnight; percent of plate control window, DMSO zero;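 active = GFP/RFP ratio change of at least 30% with cell ATP level not reduced by more than half and red fluorescence within 50% of control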; also: strong numbers were not always called active
#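 Test system: HT1080 RFP-PRO-GFP cells; Benchmarks: DMSO and RFP-L50D-GFP cell wells; Timing: cells overnight before dosing, compound overnight, 37 °C, 5% CO2; Compound: one 20 µM compound dose with 1% DMSO; Read-out: GFP/RFP fluorescence ratio.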
# CSC inhib: cancer stem cell viability inhibitors, primary screen, luminescence | 300,000 tested, 1.1% active | inhibition, % at 7.5 µM | cancer stem cell-like cells viability;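 active = mean at 75% or more and at least half the replicates too; inconclusive = mean and replicates disagree; tested in HMLE shEcad cells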;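 also: 0% = median of negative and 100% = median of positive control wells; the first replicate is given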
# Env fusion inh: inhibitors of HIV-1 Env-driven cell-cell fusion, primary screen, HeLa-JRFL effector, CEM21 target cells, luciferase; inhibition, % at 12.3 µM; 360,000 tested, 1.1% active;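 active = mean replicate inhibition score of at least 50 and every replicate individually at or above 50; inconclusive = only one of the two criteria met; inactive = mean below 50 and not all replicates reaching 50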;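 also: 0% = plate neutral controls and 100% = maraviroc near 300 nM; one replicate is shown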
# Yeast UUG start: modulators of yeast start codon fidelity, primary screen, whole organism, S. cerevisiae, single point, plate reader. S. cerevisiae UUG-firefly luciferase reporter, luminescence/redox ratio. activity score, % at 18.7 µM. 350,000 tested, 0.13% active;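 active = replicate mean at a twofold rise or more, about +100% in these data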;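 also: firefly luciferase made from a UUG start codon reports start codon fidelity; reporter light over untreated wells divided by growth signal over untreated wells; some hits fall short of that in this replicate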
# PABP polyA inh retest: further read-out of PABP polyA inh, marked with its call; inhibition, %; compound at 20 µM; confirmation repeats;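 mean of two retest wells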
# MT1-MMP act inh RFP: recorded beside MT1-MMP act inh, whose call it bears; RFP signal change, %; measured here: RFP expression control read;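 0 = vehicle wells; hits needed this value within 50% of zero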
# * = called active by the depositor; i = inactive; ? = inconclusive; . = no result given.
SMILES,PABP polyA inh,eIF4H inh,Rce1 inhib,MT1-MMP act inh,MT1-MMP act inh RFP,CSC inhib,Env fusion inh,Yeast UUG start,others
COc1ccc(CCn2c(N3CCOCC3)nc3c2c(=O)[nH]c(=O)n3C)cc1,3,-3,i,5,4,1,-20,-5,
O=C(N=C1N=C2C=CC=CN2Cc2ccccc21)c1ccc(S(=O)(=O)N2CCOCC2)cc1,-5,6,.,2,9,-3,-19,.,
CCOC(=O)c1cnc(SCC(=O)c2ccc(C)cc2)nc1N,-13,4,i,-8,-4,-13,.,.,
COc1ccc(C(O)c2nc(-c3ccccc3OC)cs2)cc1 (configuration not stated),.,.,.,4,-3,.,-11,-17,
CC(C)CN(CC(C)C)S(=O)(=O)N1CCC(C(=O)NCc2ccc(F)cc2)CC1,9,-3,.,8,-9,-2,.,3,
O=C(CN1CCN(S(=O)(=O)c2ccc3c(c2)OCCO3)CC1)Nc1cccc(F)c1,.,.,.,-4,1,.,-4,-11,
CCCN(CCC)C1CC(=O)N(Cc2ccccc2)C1=O (configuration not stated),2,-3,i,3,8,-4,.,-1,
CCCC(=O)Nc1nc2ccc(NC(=O)c3cccnc3)cc2s1,-3,4,i,4,-5,48,.,-7,
Cc1ccccc1C(=O)Nc1cccc(NC(=O)c2ccc(F)cc2)c1,4,-8,i,-2,-7,10,-15,-9,
CN(CC(=O)Nc1ccc(Cl)cc1)C(=O)COc1ncnc2ccccc12,.,.,.,2,-1,.,-6,-2,
Cc1ccc(S(=O)(=O)N2CCOCC2)cc1NC(=O)CN1CCC(Cc2ccccc2)CC1,6,5,i,0,-9,37,-1,.,
Cc1ccc(C(=O)NCC(=O)NCC(=O)OCC(=O)c2cccs2)cc1,3,6,i,10,10,2,-7,-17,
COC(=O)c1cc(NC(=O)C2C3C=CC(C3)C2C(=O)O)cc(C(=O)OC)c1 (configuration not stated),1,-2,i,-3,-2,.,19,-18,
O=C(/C=C/Nc1ccccc1O)c1ccco1,2,2,i,-12,-1,2,-25,.,
CCCNC(=O)C1(C)CCN(C(=O)COCc2ccccc2)C1 (configuration not stated),.,.,.,-1,2,.,-8,-9,
CCCC(NS(=O)(=O)c1ccc(-c2ccc(=O)[nH]n2)s1)c1cccs1 (configuration not stated),3,-13,i,-1,-2,1,0,-11,
Cc1ccc(-c2cc(C(=O)N3CCc4ccccc4C3)no2)cc1,5,-4,i,-4,2,4,-10,.,
COc1ccc(S(=O)(=O)N2CCN(C(=O)COc3ccc4c(C)cc(=O)oc4c3)CC2)cc1,5,-1,i,.,.,.,-108,1,
CCc1noc(C)c1C(=O)NNC(=O)c1ccc(Br)cc1,.,.,.,5,-1,0,12,-18,
O=C(COc1ccccc1)N1CCN(C(=O)c2cccc(F)c2)CC1,-9,-9,i,3,3,1,.,.,
CNS(=O)(=O)c1cccc(C(=O)OCC(=O)Nc2ccc(Cl)cn2)c1,0,1,i,2,2,-4,9,-5,
CC(=O)Nc1ccc(S(=O)(=O)Nc2ccc(Cl)cn2)cc1,-2,-1,i,3,-2,-17,-34,-13,
Cc1ccc(-c2cc(C(F)(F)F)n3ncc(C(=O)O)c3n2)cc1,-5,4,i,3,6,.,.,-14,
NNC(=O)/C(=C\c1ccc(Br)cc1)NC(=O)c1cccs1,-8,-1,i,3,6,-4,1,.,
COc1ccc(N(C(=O)c2ccco2)C(C(=O)NC2CCCCC2)c2ccccc2)cc1 (configuration not stated),.,.,i,-3,-2,-14,.,-17,
Cc1ccc2cccc(OCc3nnc(SCC(=O)O)n3C)c2n1,2,-5,i,-2,2,5,9,.,
O=C(NCc1cccnc1)[C@@H]1CC=C[C@@H]2CCN(Cc3ccc(Cl)c(Cl)c3)C(=O)[C@@H]21,.,.,i,0,-2,-5,20,-13,
O=C(NCCSCc1ccccc1)c1ccccc1,9,0,i,4,3,-10,-12,.,
CSc1cc(SC)ncn1,.,.,.,1,7,.,-4,-18,
Cc1ccc(S(=O)(=O)NCc2ccc3c(c2)OCO3)cc1C,2,1,i,4,-6,2,0,0,
CCOC(=O)[C@H]1[C@H]2COc3cc(OC)ccc3[C@@H]2N2C(=O)N(c3ccc(Br)cc3)C(=O)[C@@]12C,0,-6,i,-1,-6,-15,.,-6,
CCSc1nc2sc3c(c2c(=O)[nH]1)CCc1ccccc1-3,1,1,i,-4,0,-5,-25,.,
CNc1oc(-c2ccc(C)cc2)nc1P(=O)(c1ccccc1)c1ccccc1,-2,3,i,-3,-3,5,-36,.,
CC(C)OC(=O)c1c(NC(=O)c2ccco2)sc2c1CCCCC2,9,0,i,-9,-6,-17,.,-19,
Cc1c(NS(=O)(=O)c2cccc(C(=O)Nc3cccc(F)c3)c2)c(=O)n(-c2ccccc2)n1C,.,.,.,-1,-2,.,14,6,
O=C(COc1ccc(Cl)cc1)OCC(=O)N1CCCCCC1,6,3,i,4,2,-1,.,1,
Cc1cccc(NC(=O)CCn2nc(C)cc2C)c1,-9,-7,i,-3,-1,-10,.,-11,
O=[N+]([O-])c1ccc(Sc2ccncn2)c([N+](=O)[O-])c1,.,.,.,19,2,.,i,-41,
O=[N+]([O-])c1ccc(N/N=C/c2ccccc2)c(F)c1,-2,-4,i,-18,-2,26,-59,-15,
O=C1N[C@@H](Cc2c[nH]c3ccccc23)C(=O)N[C@H]1Cc1ccccc1,.,.,.,5,10,.,-5,-4,
COc1ccc(C(=O)c2cc(C(C)=O)c(Nc3ccccc3)s2)cc1,4,-4,i,0,-4,19,.,.,
COc1cccc(N2CC(C(=O)Nc3c(C(N)=O)oc4ccccc34)CC2=O)c1 (configuration not stated),.,.,i,2,-1,-24,-12,0,
COc1ccc(CNC(=O)c2nnn(CC(=O)Nc3cc(C)cc(C)c3)c2N)cc1,-6,4,i,1,3,-4,-5,-18,
CCC(C)Oc1ccc(C(=O)Nc2ccc(CN3CCOCC3)cc2)cc1 (configuration not stated),3,1,i,-1,-20,.,4,10,
COc1ccc(N(CC(O)Cn2c(C)nc3ccccc32)S(=O)(=O)c2ccccc2)cc1 (configuration not stated),-1,5,i,-4,1,6,-29,.,
Cc1cc(NC(=O)CCC(=O)N(c2ccccc2)C(C(=O)NC2CCCC2)c2cccs2)no1 (configuration not stated),-1,3,i,5,5,-5,.,-4,
CC(=O)Oc1ccc(-c2nc3cc(Cl)ccc3c(=O)o2)cc1,2,-13,i,-3,0,-12,-5,-20,
Cc1ccc(-c2c(C(=O)NC(C)C)oc(=O)c3ccccc23)cc1,-4,-1,i,-5,-1,-16,7,-28,
COC(=O)c1cccc(CN2C(=O)C(C)Sc3ccc(C#N)cc32)c1 (configuration not stated),.,.,.,-6,-1,.,32,4,
CC1CCN(S(=O)(=O)c2cccc(C(=O)NC3CCCC3)c2)CC1,15,-3,i,2,-8,-6,13,-14,
OC[C@H]1O[C@@H](c2nc(-c3ccccc3Br)no2)[C@H](O)[C@@H](O)[C@H]1O,.,.,.,1,4,.,-7,-22,
CCC1CCCCN1C(=O)CCC(=O)Nc1nnc(C(F)(F)F)s1 (configuration not stated),0,7,i,5,3,-10,6,0,
CC1=C(C#N)C(=O)N(C)C(C)(C)C1,1,3,i,-3,3,-8,.,-18,
CC(NC(=S)NCc1ccc(F)cc1)C12CC3CC(CC(C3)C1)C2 (configuration not stated),-2,-12,i,-6,-9,-11,41,.,
Cc1c(C)c(C)c(S(=O)(=O)n2[nH]c(=O)c(CCO)c2C)c(C)c1C,2,-1,i,-3,-3,-5,-3,.,
O=C(Cc1cccs1)NNC(=O)c1ccc(F)cc1,55*,?,i,-2,-3,-16,.,.,PABP polyA inh retest=97*
COc1cc(-c2nnc(SCC(=O)OC3CCCCC3)o2)cc(OC)c1OC,-6,2,i,12,-1,12,8,-2,
CO/N=C(/c1nonc1N)N1CCN(c2ccc([N+](=O)[O-])cc2)CC1,1,17,i,4,-4,-1,.,-9,
Cc1ccc(C(=O)OCC(=O)NCCC2=CCCCC2)cc1N,3,6,i,1,4,-7,-5,.,
O=C(NNC(=O)c1c(F)cccc1F)c1ccccc1OC(F)(F)F,-8,1,i,-4,1,0,-6,.,

# Other compounds
SMILES,PABP polyA inh,eIF4H inh,Rce1 inhib,MT1-MMP act inh,MT1-MMP act inh RFP,CSC inhib,Env fusion inh,Yeast UUG start,others
CCn1c(CC(=O)Nc2ccc(OC)cc2)nnc1SCC(=O)N1CCOCC1,1,4,i,0,4,1,0,-15,
CSC1=NC2C(N1)N(C)C(=O)N2C (configuration not stated),38,-1,i,-3,-1,3,.,4,
CC(=O)C1CCC2C3CCC4CC(=O)CCC4(C)C3C=CC12C (configuration not stated),.,.,.,0,-2,.,17,-20,
O=C(Nc1cccc(S(=O)(=O)NC2=NCCC2)c1)c1c(F)cccc1Cl,.,.,i,0,-6,.,-41,-3,
CC(=O)N[C@@H](Cc1ccc(OC(F)(F)F)cc1)C(=O)O,3,8,i,0,5,-9,-3,.,
Cc1ccc(N2C(=O)C3C4C=CC(CNC(=S)N5CCN(c6ccccc6)CC5)(O4)C3C2=O)cc1 (configuration not stated),-3,-2,i,9,-4,19,9,.,
CN(C)C1=NCCN1CCC1CCCCC1,.,.,.,-1,2,8,-1,-20,
CCOCCN1CCN(c2c(CC)c(C)nc3cc(-c4cc(OC)cc(OC)c4)nn23)CC1,6,4,i,4,-7,-4,.,11,
CSc1nc(NS(=O)(=O)c2ccc(F)cc2F)nn1C,-2,-5,i,-3,4,-11,14,-12,
CCCCCCc1ccc(N2C[C@H](Cc3ccccc3)[C@@H](CC(=O)NCc3ccc(OC)cc3)C2=O)cc1,3,-4,i,0,-11,64,18,-6,
Cc1noc(NS(=O)(=O)c2ccc(NC(=O)c3cc(=O)c4ccccc4o3)cc2)c1C,11,-12,i,0,0,-10,-10,-6,
Cn1c(SCC(N)=O)nnc1-c1ccc(C(C)(C)C)cc1,2,7,i,0,1,-11,2,10,
COc1cc(C(=O)NC(C)c2ccc(S(N)(=O)=O)cc2)ccc1OCC(=O)N1CCOCC1 (configuration not stated),-14,-6,i,4,7,7,-5,-16,
CCn1c(SCC(=O)N2CCN(c3ccccc3)CC2)nnc1-c1cc2cc(Cl)ccc2o1,-1,-5,i,-3,-17,-15,68*,-7,
CCCc1ccccc1OCCNC(C)=O,-11,2,i,-2,2,-6,.,-12,
CN1CCN(C(=S)Nc2ccc(Cl)cc2Cl)CC1,-5,10,i,3,-1,-5,.,-23,
COc1ccc(CCC(=O)NCCS(=O)(=O)N2CCN(c3ccccc3)CC2)cc1,.,.,i,9,5,-16,12,-10,
Clc1ccc(N=C2SCCS2)cc1,-2,2,i,3,-1,0,-5,.,
COc1ccc(-c2cnc3c(NC(C)=O)cc(-c4cccc(C(=O)NCCO)c4)cn23)cc1OC,.,.,.,-2,5,.,7,-14,
O=C(NCCC1=CCCCC1)C1CCC(CNc2c(N3CCCCC3)c(=O)c2=O)CC1 (configuration not stated),3,-3,i,0,1,-6,9,.,
O=C(Cc1ccc(F)cc1)Nc1nnc(SCC(=O)NC2CCCC2)s1,5,8,i,-5,-1,-5,-1,.,

# Compound activity deposited in PubChem by several laboratories.

# This is a subset; the hit share may differ from the screen's.
